ClpP mod: qHTS Assay for Activators of ClpP; ATP-dependent Clp protease proteolytic subunit (Bacillus subtilis (strain 168)), P80244; purified B. subtilis ClpP, FRET peptide cleavage, 20 min; Potency, µM (series often up to 57.5 µM), for the others: at the highest dose activity change, negative = active; actives 1.9% (n = 340,000); active = well fitted falling curve with a large enough effect; inconclusive = small, poorly fitted or top-dose-only effect; inactive = no such curve, though single readings can be large or run the other way; also: the source files actives as falling curves though it sought activators and does not explain the sign; nearly all actives have a fitted effect of over 65% in size; many hits overshoot -100%
Target sequence (P80244 whole entry, looked up): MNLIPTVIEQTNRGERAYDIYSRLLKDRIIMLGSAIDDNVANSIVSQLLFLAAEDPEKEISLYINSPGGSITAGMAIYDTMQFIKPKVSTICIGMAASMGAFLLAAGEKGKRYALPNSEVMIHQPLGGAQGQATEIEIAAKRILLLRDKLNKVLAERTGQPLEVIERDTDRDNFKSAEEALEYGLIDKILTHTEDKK
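Buffer: 100 mM Tris/HCl pH8, 100 mM KCl, 0.05% low protease BSA, 2.5% glycerol, 0.01% Tween-20. ClpP 10 microg/mL final; 20 min RT; delta FRET normalized to ADEP and DMSO controls.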
Starred values were filed as active, the others as inactive; ? = inconclusive; & = joins results of further samples. Potency is read from the fitted curve at half-maximal effect. These rows are one share of the data (hit frequency here may not be typical).

SMILES	ClpP mod
CCN1C(=O)c2ccccc2Sc2ccc(NC(=O)c3ccc(C)c(F)c3)cc21	-2.1%
CCOC(=O)[C@]12CCC=C1N(Cc1ccco1)C(=O)[C@H](CC(=O)NCc1ccc(OC)c(OC)c1)C2	-1.1%
COc1ccc(N2CC(NC(=O)c3ccco3)CC2=O)cc1OC (centres undefined)	-2.9%
COc1cc2nc(N3CCCN(C)CC3)nc(NC3CCN(C)C3)c2cc1OC (centres undefined)	3.9%
COc1cc2c(=O)c(C(=O)c3ccc(C)c(C)c3)cn(Cc3ccccc3F)c2cc1OC	1.5%
CCCCN(CC)c1ncnc2c1sc1nc(N3CCOCC3)c3c(c12)CCCC3	-1.6%
Nc1nc(NCc2cccc(Cl)c2)c2[nH]cnc2n1	-1.1%&-1.0%
COc1ccc(-c2cc3ccc(O)c(CN4CCCCC4C)c3oc2=O)cc1OC (centres undefined)	1.2%
Cc1nc2ccccc2n1CCc1nc2c3ccccc3nc(SCc3ccccc3F)n2n1	0.0%
COc1ccc(S(=O)(=O)N(CC(=O)NCCSc2ccccc2)c2ccc(Cl)cc2)cc1	-16.2%
CC1CCN(S(=O)(=O)c2ccc3nc(N4CCN(c5ccccc5F)CC4)ccc3c2)CC1	-5.4%
COc1ccccc1-c1cc(NC(=O)COc2ccc(C)c(C)c2)n(-c2ccccc2)n1	?
CCOc1ccc(CNC(=O)CSc2c3c(nc4ccc(Cl)cc24)CCCC3)cc1	1.7%
CCN1C(=O)c2ccccc2Sc2ccc(NC(=O)Nc3ccc(C(C)=O)cc3)cc21	-4.9%
Cc1cccc(N2CCN(C(=O)c3oc(=O)c4ccccc4c3-c3ccccc3)CC2)c1C	0.1%
COc1ccc(Br)cc1CNC(=O)C1CCCCN1S(=O)(=O)c1ccc(F)cc1 (centres undefined)	-1.2%
CCOC(=O)c1ccc(-c2ccc(/C=C(\C#N)C(=O)Nc3cccc(C)c3)o2)cc1	3.2%
Cc1cc(C)n(CCc2nc3c4ccccc4nc(N4CCN(c5ccc(F)cc5)CC4)n3n2)n1	0.0%
CC(C)CCNC(=O)C1CCN(c2nc3ccc(Cl)cc3[nH]2)CC1	-3.0%
CCc1ccc(NC(=O)c2ccc(F)c(S(=O)(=O)N3CCc4ccccc4C3)c2)cc1	-20.3%
CCCCN(CC)C(=O)c1c[nH]c2ccc(S(=O)(=O)N(C)c3ccc(Cl)cc3)cc2c1=O	-17.8%
CCc1ccccc1NC(=O)COCc1cc(-c2ccco2)on1	-2.8%
COc1cccc(OCCCn2c(-c3ccc(Cl)cc3)nc3ccccc3c2=O)c1	1.1%
Clc1cccc(-n2ncc3c(N4CCN(Cc5ccccc5)CC4)ncnc32)c1	-2.8%
Cc1ccn2c(Nc3c(C)cccc3C)c(-c3ccc(Cl)s3)nc2c1	?
More results
SMILES	ClpP mod
CCc1nnc2c3ccccc3nc(N3CCN(c4cc(C)ccc4C)CC3)n12	1.1%
COc1ccc(C2NC(=O)N(C)C3=C2C(=O)N(c2ccc(Br)cc2)C3)cc1 (centres undefined)	-10.7%
COCCNC(=O)c1nn(-c2ccc(Cl)cc2)nc1CO	14.1µM*
Cc1ccc(NC(=O)CN2CCCN(Cc3cc(C)ccc3C)S2(=O)=O)c(Cl)c1	-4.1%
CCOC(=O)c1ccc(NC(=O)c2cnc(N3CCCC3)nc2C)cc1	-15.9%
CCOc1c(Br)cc(C2C=C(C(=O)O)Nc3ncnn32)cc1OC (centres undefined)	-4.7%
CN1CCN(Cc2c(O)ccc3cc(-c4ccc(Cl)cc4)c(=O)oc23)CC1	4.3%
COc1cc(OC)cc(-c2nc3n(n2)C(c2ccccc2)C(C(N)=O)=C(C)N3)c1 (centres undefined)	-1.4%
COc1ccc(Nc2c3c(nc4ccc(NC(=O)/C=C/c5cc(OC)c(OC)c(OC)c5)cc24)CCCC3)cc1OC	-5.4%
COc1ccccc1-n1c(=O)c2c3c(sc2n(Cc2ccccc2F)c1=O)CN(C(C)=O)CC3	1.4%
Cc1ccc(C)c(Cn2c(=O)cc(C)c3c(C)nn(-c4cccc(F)c4)c32)c1	-1.1%
Cc1ccc(S(=O)(=O)c2cn(CC(=O)Nc3ccc4c(c3)OCO4)c3ccccc3c2=O)cc1C	-4.4%
CCN1CCN(Cc2c(O)ccc3c(=O)c(Oc4ccccc4Cl)c(C(F)(F)F)oc23)CC1	1.1%
CC(C)C(=O)Nc1ccc2nc(SCC(=O)N3CCc4ccccc43)sc2c1	-5.8%
O=C(NCC(c1cccnc1)N1CCc2ccccc2C1)C(=O)Nc1ccc(F)cc1F (centres undefined)	1.1%
CCOC(=O)c1c(S(=O)(=O)N2CCCC(C(=O)NCc3ccccc3OC)C2)c(C)n(C)c1C (centres undefined)	0.9%
O=C(Nc1cccc(C(F)(F)F)c1)C1CCCN(S(=O)(=O)c2cccc3nonc23)C1 (centres undefined)	-2.1%
Cc1ccccc1-n1c(C)nnc1SC(C)C(=O)NCc1ccco1 (centres undefined)	1.0%
CCCCN(C)CCCNC(=O)Cn1ncc2c3ccccc3n(Cc3cc(C)ccc3C)c2c1=O	4.8%
CCCc1oc2ccc(NS(=O)(=O)c3ccc(OCC)cc3)cc2c1C(=O)OCC	-9.7%
CCS(=O)(=O)Nc1ccc(-c2cn3c(C)csc3n2)cc1	-14.8%
CC(C)c1ccc2occ(CC(=O)Nc3ccccc3Cl)c2c1	0.1%
CN(C)S(=O)(=O)N(CC(=O)NCCSCc1cccc(Cl)c1)c1ccccc1	2.0%
Cc1ccc(N2CCN(S(=O)(=O)c3cc(Br)cc4c3N(C(=O)C3CC3)CC4)CC2C)cc1 (centres undefined)	-0.5%
Cc1ccc(/C=C/c2nc3ccccc3n2S(=O)(=O)c2ccc(Br)cc2)cc1	?
Going on with the list.
SMILES	ClpP mod
Cc1ccc(Cl)cc1N1CCN(C(=O)c2cn(C)c3ccc(S(=O)(=O)N4CCCC4)cc3c2=O)CC1	-2.9%
CCCCCn1c(=O)[nH]c2cc(C(=O)NCCN(C)CCCC)ccc2c1=O	-22.5%
COc1ccccc1NC(=O)C(=O)NCC(c1ccc2c(c1)OCO2)N1CCOCC1 (centres undefined)	-1.0%
COc1ccccc1NC(=O)c1c(NC(=O)c2ccco2)sc2c1CCC(C(C)(C)C)C2 (centres undefined)	2.5%
Cc1cc(C)c2c(CC(=O)N(Cc3ccc(Cl)cc3)Cc3ccco3)coc2c1	0.0%
COc1ccc(Cl)cc1NC(=O)Cn1c(=O)n(-c2ccc(C)cc2)c(=O)c2ccc(C(=O)NCc3ccccc3Cl)cc21	-8.2%
Cc1ccc(-c2nnn(CC(=O)N(CC(=O)NCCC(C)C)c3ccc(F)cc3)n2)cc1	-1.6%
Cc1ccc(NC(=O)C(=O)NCC(c2cccnc2)N2CCN(Cc3ccccc3)CC2)cc1C (centres undefined)	-2.4%
CC(=O)c1ccc(-c2c(CCO)sc3ccccc23)cc1	2.3%
Cc1cccc(Cn2c(COc3ccc(Cl)cc3)nc3ccccc32)c1	-3.8%
O=C(Cn1c(-c2cccs2)cc2cc(F)ccc21)NCCCN1CCN(c2ccc(F)cc2)CC1	31.6µM*
O=S(=O)(c1cccs1)N1CCN(c2nc(-c3cccs3)nc3ccccc23)CC1	?
Cc1ccc(C)c(NC(=O)CCc2c(C)n(C)c3cc(-c4ccccc4C)nn3c2=O)c1	4.2%
CC(C)C(=O)Nc1ccc(/C=C2\C=Cc3ccccc32)cc1	0.1%
Cc1ccccc1-c1noc(-c2cccnc2N(C)Cc2ccc(Cl)cc2)n1	?
Cc1cc2c(cc3c(SCc4nc(-c5ccccc5)oc4C)nnc(C)n32)o1	-17.3%
COc1ccc(NC(=O)c2sc3nc(C)c(C(=O)Nc4ccc(C)cc4C)c(-c4sccc4C)c3c2N)cc1	-4.7%
CCOc1ccc(C(c2c(O)cc(C)n(CCOC)c2=O)N2CCN(c3ccccc3F)CC2)cc1 (centres undefined)	0.8%
Cc1ccc(-n2ncc3c(=O)n(Cc4cccc(C(F)(F)F)c4)cnc32)cc1C	-23.1%
Cc1ccc2oc(=O)c3cnn(CC(=O)N(C)c4ccc(F)cc4)c3c2c1	0.4%
O=C(C1CCC(Cn2c(=O)c3sccc3n(Cc3ccccc3F)c2=O)CC1)N1CCCCC1 (centres undefined)	0.4%
CCOC(=O)c1cccc(NC(=O)C2CCN(S(=O)(=O)c3c(C)noc3/C=C/c3ccc(C)cc3)CC2)c1	?
CCCN(CCC)C(=O)Cn1c(=O)n(-c2ccc(Cl)c(Cl)c2)c(=O)c2c(C)c(C(=O)N(C)C)sc21	-2.2%
COc1ccc(NC(=O)c2ccco2)cc1NC(=O)COc1cc(C)cc(C)c1	10.0%
COc1ccc(C(C(=O)NC2CCCC2)n2c(-c3cccs3)nc3ccccc32)cc1 (centres undefined)	4.1%
The results go on:
SMILES	ClpP mod
COc1cccc(C(=O)Nc2cccc(NC(=O)c3ccc(Cl)cc3Cl)c2)c1	-24.2%
Cc1c(C=O)ccc(N(C)C)c1C	-0.4%
CCCS(=O)(=O)Nc1cc(-c2cn3ccc(C)cc3n2)ccc1C	4.5%
COc1ccc(S(=O)(=O)N(C(=O)c2ccncc2)c2ccc3oc(C)c(C(C)=O)c3c2)cc1	-4.4%
Cc1c(C(=O)Nc2ccccc2F)sc2ncnc(N(C)C3CCCCC3)c12	-18.1%
CCN(C(=O)c1cc(S(=O)(=O)N2CCCC2)cn1C)c1ccc(OC)cc1	-0.2%
COc1ccc(CN(Cc2ccccc2)C(C)=O)cc1COc1ccc(NC(C)=O)cc1	0.3%
CCOC(=O)c1ccc(N2C(=O)c3n[nH]c(-c4ccco4)c3C2c2ccc(OC)cc2OC)cc1 (centres undefined)	-11.0%
CCOc1cccc(C2c3c(oc4ccc(F)cc4c3=O)C(=O)N2c2cc(C)ccn2)c1 (centres undefined)	-1.6%
COc1cccc(-c2nc(SCC(=O)NC3CCCC3)c(-c3ccccc3)[nH]2)c1	31.6µM*
COc1ccc(C(=O)N2CC(=O)Nc3ccc(C)cc3C2c2ccccc2)cc1OC (centres undefined)	-2.0%
COc1ccccc1C(=O)NCCn1cc(SCC(=O)Nc2ccccc2F)c2ccccc21	-4.7%
CCOC(=O)CSc1nc2c(sc3ccccc32)c(=O)n1Cc1ccc(OC)cc1	-9.3%
O=C(NCc1ccccc1)C(c1ccc(-c2ccccc2)cc1)N1CCN(C(=O)C2CCCO2)CC1 (centres undefined)	1.3%
COC(=O)Cn1c(=O)c2c(nc3n2CCN3c2cccc(C)c2)n(C)c1=O	?
Cc1ccc(Oc2coc3cc(OCC(=O)NC4CCCCC4)ccc3c2=O)cc1	0.4%
CCC(=O)N1c2ccccc2CC1C(=O)NCCc1ccccc1Cl (centres undefined)	-0.3%
CCCCNC(=O)CSc1nc2n[nH]c(C)c2c(=N)n1-c1ccccc1CC	1.9%
COc1cccc(NC(=O)C(=O)NCCc2csc(-c3ccc(C(F)(F)F)cc3)n2)c1	-0.9%
CN(C)c1ccc(C(=O)C(=O)N2CCN(c3ccccc3)CC2)cc1	-1.9%
O=C1c2[nH]nc(-c3ccccc3O)c2C(c2cccc(OCc3ccccc3)c2)N1CCCO (centres undefined)	-0.8%
COc1cc(CNCCSc2nnnn2C)ccc1OCc1ccc(F)cc1	-6.4%
Cc1c(O)ccc2c1OC(C)(C)CC2	-7.8%
O=C(COc1ccccc1C(=O)Nc1ccccc1)Nc1ccc(-c2ccccc2)cc1	?
CC1=C(C(=O)N2CCCCC2)C(c2ccc(Cl)cc2)n2c(nc3ccccc32)N1 (centres undefined)	-15.0%

Looked up by compound from above, six records:
SMILES	ClpP mod
COc1cccc(C(=O)Nc2cccc(NC(=O)c3ccc(Cl)cc3Cl)c2)c1	-24.2%
CCOc1ccc(C(c2c(O)cc(C)n(CCOC)c2=O)N2CCN(c3ccccc3F)CC2)cc1 (centres undefined)	0.8%
CCOC(=O)c1c(S(=O)(=O)N2CCCC(C(=O)NCc3ccccc3OC)C2)c(C)n(C)c1C (centres undefined)	0.9%
CCCCN(C)CCCNC(=O)Cn1ncc2c3ccccc3n(Cc3cc(C)ccc3C)c2c1=O	4.8%
Cc1ccn2c(Nc3c(C)cccc3C)c(-c3ccc(Cl)s3)nc2c1	?
COCCNC(=O)c1nn(-c2ccc(Cl)cc2)nc1CO	14.1µM*

New compounds follow
SMILES	ClpP mod
COc1ccccc1Cn1cc(C(=O)c2ccc(C)cc2)c(=O)c2cc(F)cc(F)c21	-1.6%
CCOC(=O)c1ccccc1NC(=O)c1c(C)oc2ncnc(N3CCOCC3)c12	-6.2%
C=CCC[C@@H](CCCCC)OC(=O)/C=C/[C@H](O)[C@@H](O)C[C@@H](O)CC=C	2.8%
CCc1c(C)sc2c1CCN(Cc1ccccc1F)C2c1ccccc1 (centres undefined)	-20.5%
COc1cc(NC(=O)CC(C)S(=O)(=O)c2cc3c4c(c2)CCN4C(=O)CC3)cc(OC)c1 (centres undefined)	-0.1%
CCn1c(CNC(=O)c2ccc(OC)cc2)nnc1SCC(=O)Nc1cc(C)ccc1C	-1.6%

Among those listed so far, 5 contain bromine:
SMILES	ClpP mod
COc1ccc(Br)cc1CNC(=O)C1CCCCN1S(=O)(=O)c1ccc(F)cc1 (centres undefined)	-1.2%
COc1ccc(C2NC(=O)N(C)C3=C2C(=O)N(c2ccc(Br)cc2)C3)cc1 (centres undefined)	-10.7%
CCOc1c(Br)cc(C2C=C(C(=O)O)Nc3ncnn32)cc1OC (centres undefined)	-4.7%
Cc1ccc(N2CCN(S(=O)(=O)c3cc(Br)cc4c3N(C(=O)C3CC3)CC4)CC2C)cc1 (centres undefined)	-0.5%
Cc1ccc(/C=C/c2nc3ccccc3n2S(=O)(=O)c2ccc(Br)cc2)cc1	?

Bioassay records as filed in PubChem BioAssay.
